LANA-nucl inh = inhibitors of KSHV LANA-nucleosome binding, primary screen, biochemical, fluorescence polarization, FITC-LANA1-23, chicken nucleosomes. z-score (concentration not given with the values). hit rate 0.3% among 51,000. FITC-LANA1-23 / chicken nucleosome fluorescence polarization; hits give low values;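 active = both repeat wells score below -2 in polarization z-score versus plate sample wells, excluding overly bright wells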;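 note: 100 nL library stock added to about 30 µL; numbers are from one replicate; some results filed as inactive read as strong as hits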
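Test system: purified chicken nucleosomes with FITC-labelled LANA N-terminal peptide (1-23); Input: 240 nM purified chicken nucleosomes (480 nM peptide binding sites), final; Medium: TEN-BT buffer, pH 7.5; Timing: 10–45 min, room temperature; Technique: fluorescence polarization, 480 nm excitation, 535 nm parallel and perpendicular emission; Replication: duplicates.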
BasE inh = BasE siderophore enzyme inhibitors, primary screen, biochemical, Acinetobacter baumannii ATCC 17978, fluorescence polarization. purified BasE, fluorescence polarization binding displacement. inhibition, % (test concentration not listed). hit rate 0.1% among 84,000. AID 485350, 2010;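 active = both replicates above 25% with normal brightness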;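 note: 0% = negative plate control signal and 100% = positive plate control signal; stock transfer was 100 nL into about 30 µL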
Active calls of the source: *; . = no result given; & = joins results of further samples.

Molecule,LANA-nucl inh,BasE inh
Cc1c(C)c2c(c(C)c1OCc1ccccc1)C(CO)C(C)(C)O2 (configuration not stated),.,-0.1
Cn1c(-c2oc3nc(-c4ccccc4)cc(-c4ccco4)c3c2N)n[nH]c1=S,-2.32*,2.6
COc1ccc(N2CCN(C(=O)C(CC(C)C)NS(=O)(=O)c3ccc4c(c3)oc(=O)n4C)CC2)cc1 (configuration not stated),-0.865,0.9
O=C(Cn1nc(-c2ccccc2)ccc1=O)Nc1ccc(N2CCN(C(=O)c3ccccc3)CC2)cc1,3.08,-2.6
CCCn1c(=O)n(C)c(=O)c2c(SC(C(=O)NC(N)=O)C(C)C)nc(CC(C)C)nc21 (configuration not stated),.,-1.1
CC1(C)CC(=O)c2cnc(NC(=O)CSc3nc4ccccc4o3)nc2C1,-0.23,1.9
CCCCn1c(SCN2C(=O)c3ccccc3C2=O)nc2cc(S(N)(=O)=O)ccc21,.,0.0
Cc1cc(C(=O)Nc2cccc(OC(C)C)c2)c(C)o1,0.057,-1.5
Cc1ccc(C)c(N=C2N(C)CC(=O)N2Cc2cccnc2)c1,.,0.7
CC1=CC(C)=Nc2ccc(C)cc2N1,0.0895,-2.3
Cc1cc2ncn(CC(C)C)c2cc1C,-0.873,1.4
Cc1ccc(S(=O)(=O)/N=C2\NC(=O)CS2)cc1,0.468,-0.2
O=C(c1cccnc1Cl)N(Cc1ccccc1)Cc1ccccc1,.,1.8
CC(C)(C)OC(=O)N1CCCN(C(=O)c2sc3ccccc3c2Cl)CC1,-1.73,.
Cc1ccccc1-c1nnn(CC(=O)c2ccc(S(=O)(=O)N3CCCC3)cc2)n1,.,-1.1

6 entries from above, sorted by the number in LANA-nucl inh, low to high.
SMILES | LANA-nucl inh
Cn1c(-c2oc3nc(-c4ccccc4)cc(-c4ccco4)c3c2N)n[nH]c1=S | -2.32*
CC(C)(C)OC(=O)N1CCCN(C(=O)c2sc3ccccc3c2Cl)CC1 | -1.73
COc1ccc(N2CCN(C(=O)C(CC(C)C)NS(=O)(=O)c3ccc4c(c3)oc(=O)n4C)CC2)cc1 (configuration not stated) | -0.865
Cc1cc(C(=O)Nc2cccc(OC(C)C)c2)c(C)o1 | 0.057
CC1=CC(C)=Nc2ccc(C)cc2N1 | 0.0895
Cc1ccc(S(=O)(=O)/N=C2\NC(=O)CS2)cc1 | 0.468

Next records follow:
Molecule,LANA-nucl inh,BasE inh
CCCc1nc(NC2CCCCC2)c(C#N)c2c1CCCC2,.,-1.1
O=C(CSc1ncccn1)N1CCc2ccccc2C1,0.45,1.2
Cc1nnc2n1NC(c1ccc(Cl)cc1)C(C(=O)N1CCCCCC1)S2 (configuration not stated),-1,0.2
O=S(=O)(NCCSCc1ccco1)c1ccc(Br)cc1,-0.808,2.7
CC(C)CN1CC(c2nc3ccccc3n2CCCN(C)C)CC1=O (configuration not stated),-1.93,2.2
CC(C)C(NC(=O)C1CCCCC1)C(=O)N1CCN(c2ccc(F)cc2)CC1 (configuration not stated),-0.226,1.6
O=C(O)CCC/C=C\C[C@@H]1[C@@H](/C=C/[C@@H](O)COc2cccc(Cl)c2)[C@H](O)C[C@@H]1O,-0.141,-1.5
CC1(NS(=O)(=O)c2ccccc2)CCS(=O)(=O)C1 (configuration not stated),-0.931,1.4
CC(C)CNC(=O)c1cnc2n(c1=O)CCS2,-0.776,0.8
O=C1c2ccccc2C(=O)N1Cc1ccc(Cl)cc1,.,-0.6
S=c1[nH]nc(-c2ccccc2)o1,-0.296,-0.8&4.4
CC1CN(C(=O)c2cc3n(n2)C(C(F)(F)F)CC(c2ccco2)N3)CC(C)O1 (configuration not stated),-0.457,-0.9
C=CCn1c(C)cc(C(=O)CSCc2nc3sc(C)c(C)c3c(=O)[nH]2)c1C,.,-11.2
COc1ccc(NC(=O)COc2ccc(C)cc2)cc1,.,-0.7
COCCn1c(O)c(/C=N/N=C2/C(=O)N(C)c3ccccc32)c(=O)[nH]c1=S,.,-1.1
C=CCN1C(=O)C2C(C(=O)NC)C3C=CC2(O3)C1C(=O)NC1CCCCC1 (configuration not stated),-1.22,-1.3
Cc1cc(C)nc(SC(C)C(=O)Nc2ccccc2C#N)n1 (configuration not stated),-0.476,0.0
CN(c1ccccc1)S(=O)(=O)c1ccc(Cl)c(C(=O)N2CCOCC2)c1,.,5.3
O=C(OOC(=O)c1ccccc1)c1ccccc1,-0.829,.
Cc1onc(-c2c(Cl)cccc2Cl)c1C(=O)N(C)c1nnc(C(F)(F)F)s1,.,-3.0
CN(C)c1ccc(C2NC(=S)NC3=C2CCc2ccccc23)cc1 (configuration not stated),0.37,-7.5
Cn1c(C(=O)N2CCCc3ccccc32)cc2c(=O)n3ccccc3nc21,.,0.6
Cc1cccc(N/C(=N\S(=O)(=O)c2ccc(Cl)cc2)Nc2nc(C)cc(C)n2)c1,.,1.8
COc1ccc(CC(=O)N2C(=O)c3ccc(N)cc3C2=O)cc1OC,.,0.2
Cc1ccc2c(c1)C(=O)CCCO2,.,1.0
Cn1c(SCC(=O)N/N=C/c2ccccc2)nc2ccccc21,-0.157,0.0
OCCn1c(C(F)(F)F)nc2ccccc21,0.452,.
CC1(C)N=C(NS(=O)(=O)c2cc(C(F)(F)F)cc(C(F)(F)F)c2)N(c2ccccc2)O1,.,1.0
Cn1ccsc1=NC(=O)c1cc(Cl)c2c(c1)OCCCO2,.,-0.4
O=C1CCC(C(=O)NCc2ccccn2)=NN1,.,3.0

One compound at a time, from the list above.
Shown for OCCn1c(C(F)(F)F)nc2ccccc21 : LANA-nucl inh = 0.452; BasE inh = .
Shown for Cn1c(SCC(=O)N/N=C/c2ccccc2)nc2ccccc21 : LANA-nucl inh = -0.157; BasE inh = 0.0
Shown for CC1(C)N=C(NS(=O)(=O)c2cc(C(F)(F)F)cc(C(F)(F)F)c2)N(c2ccccc2)O1 : LANA-nucl inh = .; BasE inh = 1.0

New compounds follow:
Molecule,LANA-nucl inh,BasE inh
C=CCC1C(=O)N(S(=O)(=O)c2ccc(Cl)cc2)N=C1CCC (configuration not stated),.,-1.1
CCc1ccccc1Nc1nc(N)nc(CSc2nncn2C)n1,.,-0.9
CC(=O)N1CC(C)Oc2ccc(S(=O)(=O)NC(C)c3ccccc3)cc21 (configuration not stated),-0.785,10.4
Cc1cc(C)nc(Nc2nc3ccccc3c(=O)[nH]2)n1,-0.375,2.2
N#CC(C#N)=CNc1cc(-c2ccc(Cl)cc2)sc1C(N)=O,-0.097,3.0
Cc1ccc(NC(=O)Nc2ccc(SC(F)F)cc2)cc1,.,0.8
C=CCNC(=O)C(C)Oc1ccccc1 (configuration not stated),0.603,2.1
CC(C)CCn1c(=O)c2ccccc2n2c(CN(C)Cc3ccccc3)nnc12,.,0.2
Cc1cc2c3c([nH]c2cc1S(=O)(=O)N(Cc1ccco1)C1CCCCC1)CCCC3=O,-0.444,0.3
O=S(=O)(NC(=S)NC1CCCCC1)c1ccccc1,-0.814,1.1
Cc1nc2cccnc2n1-c1ccc(CC(=O)NCCN2CCOCC2)cc1,0.336,3.5
CCOC(=O)CSc1nc2sccn2c1C=Nc1cc(Cl)cc(Cl)c1,.,1.8
N#CCCNc1ccccc1C(=O)O,0.172,3.2
Brc1ccc(NCc2ccco2)cc1,-0.112,0.0
CN(C)CCN(C(=O)c1ccc(Cl)s1)c1nc2cc3c(cc2s1)OCCO3,-0.295,-3.6
O=C(NCCCN1CCCCC1)c1[nH]nc2c1COc1ccccc1-2,-0.884,-4.7
CCc1ccc(NC(=O)C(C)OC(=O)c2ccccc2NC(=O)c2ccco2)cc1 (configuration not stated),.,-0.8
Oc1cccc(-c2csc3nc4ccccc4n23)c1,0.0975,1.1
O=C(c1cc(C2CC2)nn1-c1ccccc1)N(CC1CCCO1)c1nc2ccccc2s1 (configuration not stated),.,0.1
Cc1c(C)c(C)c(CN2CCOC(c3ccccc3)C2C)c(C)c1C (configuration not stated),0.404,.
Cc1nc2c(c(C)c1CCC(=O)NCC(N)=O)c(=O)n(C)c(=O)n2C,-1.45,0.6
COc1cc2c(cc1OC)/C(=C/C(N)=O)NC(C)(C)C2,-0.551,1.6
O=C(c1ccc(NS(=O)(=O)c2ccccc2)cc1)N1CCN(Cc2ccc3c(c2)OCO3)CC1,0.332,-1.1
CCn1c2ccccc2n2c(C(=O)OC)c(C)nc12,.,-0.1
O=C(CSc1nccc(=O)[nH]1)c1cccs1,-0.136,1.8
Cc1cccc(N(Cc2ccccc2)C(=O)c2nc3nc(C)cc(C)n3n2)c1,.,-2.4
Cn1cccc1C#N,.,2.5
COC(=O)c1ccc(O)c(/C=N/N(CCO)C2=NS(=O)(=O)c3ccccc32)c1,.,-15.1
FC(F)C(F)(F)c1cc(-c2ccccc2)n[nH]1,-1.42,3.4
C=CCn1c(COC)nnc1SCC(=O)c1ccc(Br)cc1,-1.31,-0.1
COc1cc(NC(=O)CNC(=O)Cn2c(C)cc3ccccc3c2=O)cc(OC)c1OC,1.61,-3.0
CS(=O)(=O)Nc1ccc(C2=NN(C(=O)c3ccccc3)C(c3ccco3)C2)cc1 (configuration not stated),0.131,0.8
C[n+]1ccc(/C=C/c2ccc(N3CCCC3)o2)cc1,-1.4,-1.6
Cc1cc(=O)[nH]c2ccc(S(=O)(=O)NC3CCCCC3)cc12,-0.453,4.5
Nc1c(-c2ccccc2)cnc2ncnn12,-0.137,.
NC(=O)c1ccc(NC(=O)CCCSc2ccccc2)cc1,.,-1.6
CN1CCN(Cc2c(O)ccc3cc(Br)ccc23)CC1,.,1.3
CCN(CC)C(=O)/C(C#N)=C/c1ccc(OC)cc1,-0.237,-1.1
Cn1c(CC2CCS(=O)(=O)C2)n[nH]c1=S (configuration not stated),.,-0.8
COc1ccc(CC(=O)NC2CCN(S(=O)(=O)c3ccccc3C(=O)O)CC2)cc1OC,0.362,-0.2
COC(=O)c1cc2c(s1)-c1cc(F)ccc1OC2,-0.158,1.9
Cc1ccc(NC(=O)COC(=O)C2CCN(C(=O)OC(C)(C)C)CC2)cc1C,.,1.1
O=C(Nc1ccc(S(=O)(=O)N2CCCCC2c2cccnc2)cc1)c1ccc(Br)o1 (configuration not stated),-0.289,0.9
COc1ccc(OCC(O)CNC(=S)Nc2ccc3c(c2)OCCO3)cc1 (configuration not stated),-1.15,2.1
N#Cc1ccc(COC(=O)CSc2nnc(C3CCCCC3)n2N)cc1,.,0.8
Cc1csc(N(C(=O)c2ccccc2)c2ccccc2)n1,.,-0.4
O=C(COC(=O)c1ccc(CS(=O)(=O)c2ccccc2)o1)c1ccc[nH]1,.,-2.0
N#CC1=C(O)Cn2c1nc1ccc(Br)cc1c2=O,.,-0.3
O=C1CCC(C(=O)Nc2ccccc2)=NN1,.,-1.6
O=C(NCc1ccncc1)c1cccs1,-0.212,0.0
CCOC(=O)c1ccc2nsnc2c1,0.364,0.1
Cc1cn(C2CC3OCC3O2)c(=O)[nH]c1=O (configuration not stated),-0.303,-1.8
CCC(=O)c1ccc(OCC(=O)OC(C)C(=O)Nc2ccc3c(c2)OCO3)cc1 (configuration not stated),.,-1.4
Cn1c(O)c(/C=N/N2CCOCC2)c2ccccc21,.,-1.0
O=c1oc2ccc3ccccc3c2cc1-c1nc(-c2ccccc2F)no1,2.98,-7.4
Cc1occc1-c1nnc(SCCCC(=O)N2CCOCC2)n1-c1ccccc1,.,-0.5
COC1c2c(c(-c3ccccc3)nn2-c2ccccc2)-c2nc3ccccc3n21 (configuration not stated),.,-0.3
CC(=O)N1CCN(c2nc(C)nc3sc(-c4ccccc4)cc23)CC1,.,-2.7
OCCCCn1cnc2cc(Cl)c(Cl)cc21,1.3,.
NC(=O)C1CCN(C(=O)NC2CCCCC2)CC1,-0.694,-0.4

Additional records.
Molecule,LANA-nucl inh,BasE inh
O=c1[nH]c2sc3c(c2c2nncn12)CCCC3,-0.456,1.8
CC1CC(C)CN(C(=O)COC(=O)c2ccccc2NS(=O)(=O)c2ccc3c(c2)OCCO3)C1 (configuration not stated),.,-0.2
COc1ccc2c(COC(=O)c3ccccc3NCCO)cc(=O)oc2c1,.,-1.0
O=C(CCc1ccco1)N1CCCC(c2nc3ccccc3s2)C1 (configuration not stated),.,0.9
CC1CCN(C(=O)COc2ccc3c4c(c(=O)oc3c2)CCCCC4)CC1,-0.594,1.6
c1ccc2c(c1)CCc1c-2nc2ccccc2c1N1CCOCC1,.,3.3
O=C(CCN1CCCCC1)N/N=C/c1cccnc1,-0.905,1.3
COc1cc(OC)c(OC)cc1CNCc1ccco1,-0.295,-0.3
Cc1ccc(-n2ncc3c(=O)n(CC(N)=O)cnc32)cc1,0.197,-0.1
Cc1ccc2[nH]c(CNC(=O)c3ccncc3)cc2c1,0.153,3.4

Source: PubChem (ICCB-Longwood Screening Facility, Harvard Medical School)

Not all compounds are listed; the hit share may differ from the screen's.
